D2 PAM: positive allosteric modulators of human D2 dopamine receptor | AID 624464 | P14416 | DiscoveRx D2 beta-arrestin cells, luminescence, 90 min; 100% = 57 uM dopamine signal | potentiation, % (test concentration not listed) | 360,000 compounds, 0.23% hits; active = potentiation of 50% or more; inconclusive = 30% to 50%; inactive = 30% or less;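 note: compound concentration not given in the record; tested on top of an EC20 dose of dopamine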
Target sequence (P14416 whole entry, looked up): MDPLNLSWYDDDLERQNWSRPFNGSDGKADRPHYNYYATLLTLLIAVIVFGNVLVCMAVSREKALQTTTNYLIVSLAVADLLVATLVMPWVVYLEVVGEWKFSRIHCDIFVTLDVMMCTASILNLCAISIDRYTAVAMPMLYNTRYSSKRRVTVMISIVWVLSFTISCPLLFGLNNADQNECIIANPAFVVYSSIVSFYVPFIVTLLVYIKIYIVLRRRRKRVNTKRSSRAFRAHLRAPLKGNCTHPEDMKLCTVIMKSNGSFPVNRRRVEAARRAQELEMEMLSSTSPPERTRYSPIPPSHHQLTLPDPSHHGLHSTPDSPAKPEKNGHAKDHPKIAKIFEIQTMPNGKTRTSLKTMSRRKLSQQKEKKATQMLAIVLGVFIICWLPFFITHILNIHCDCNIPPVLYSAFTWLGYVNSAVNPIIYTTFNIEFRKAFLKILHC
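D2 cells co-treated with compound plus 50 nM dopamine (EC20) for 90 min at 37 deg C to detect potentiation. Beta-arrestin recruitment was read as enzyme-fragment luminescence after 1 h at ambient temperature. Full response was set by 57 uM dopamine.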
PINK1 expr mod: modulators of PINK1 expression | PINK1 immunofluorescence, high-content cytometry, 24 h | Potency, µM (titrated, usually from 76.6 µM), for the others: top-dose activation (PINK1 increase), actives largely listed as activators | 410,000 compounds, 0.2% hits; active = well fitted activation curve with a large enough effect; inconclusive = small, poorly fitted or top-dose-only effect; inactive = flat fitted curve, though single readings scatter; cell line not stated here;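 note: potency is the fitted concentration of half-maximal effect; % of control where 0% means no effect; nearly all actives have a fitted effect of over 65% in size; a mitochondrial uncoupler was the plate control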
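Fluorescence from anti-PINK1 antibody, together with nuclear and cell stains, was scanned on a laser-scanning cytometer. Before staining, stable-line cells were incubated 24 hours with compounds at 5 concentrations; primary antibody 12 h at 10 degrees C.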
TRPML1 agonist: activates the human TRPML1 channel; 410,000 compounds, 0.12% hits; AID 624414; activation, % (concentration not given with the values); TRPML1-expressing cells, Ca2+ dye fluorescence, FDSS; host cell line not named in the record; reference of the full effect not given here; Q9GZU1; in the data active = activation above about 50%; inconclusive = about 30% to 50%; inactive = below about 30%; note: 0% is about no effect; the text of the record puts the active cut at 80%
Target sequence (Q9GZU1 whole entry, looked up): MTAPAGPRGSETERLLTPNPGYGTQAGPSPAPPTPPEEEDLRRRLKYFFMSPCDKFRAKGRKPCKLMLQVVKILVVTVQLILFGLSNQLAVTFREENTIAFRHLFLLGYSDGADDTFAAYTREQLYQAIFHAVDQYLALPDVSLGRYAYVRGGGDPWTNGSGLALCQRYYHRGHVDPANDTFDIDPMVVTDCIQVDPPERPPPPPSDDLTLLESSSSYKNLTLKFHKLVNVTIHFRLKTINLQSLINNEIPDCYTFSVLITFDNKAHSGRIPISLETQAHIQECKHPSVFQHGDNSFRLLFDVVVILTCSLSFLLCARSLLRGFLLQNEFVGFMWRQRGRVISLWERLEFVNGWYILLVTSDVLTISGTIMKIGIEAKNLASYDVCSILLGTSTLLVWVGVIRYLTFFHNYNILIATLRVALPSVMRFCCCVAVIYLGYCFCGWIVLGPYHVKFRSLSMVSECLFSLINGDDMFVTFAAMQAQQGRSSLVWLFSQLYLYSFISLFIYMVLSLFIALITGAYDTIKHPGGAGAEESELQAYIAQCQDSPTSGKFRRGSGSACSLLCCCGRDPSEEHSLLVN
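Tet-induced TRPML1-DL cells, 1,500 per well, cultured overnight, were loaded with a no-wash Ca2+ dye for 45–90 min. Calcium fluorescence was recorded on the FDSS for 110 s after compound addition, before the EC80 agonist (4 uM 54-4) was added.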
CtBP-E1A blk: blocks the CtBP interaction with E1A | AlphaScreen GST-E1A/His-CtBP binding, 1536-well; stronger effect = lower value; control for the full effect not named in the record | activity change, % (no concentration beside the values) | 340,000 compounds, 0.49% hits | AID 651724; in the data active means activity change below about -65%; inconclusive means about -30% to -65%; inactive means above about -30%; note: % is set by controls: 0 for no effect and ±100 for the full control effect
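GST-E1A and His-tagged CtBP (125 nM each as 5X stock) were preincubated with pin-transferred compound for 2 h at 37 °C in the dark, then glutathione donor and nickel acceptor beads were added for 1 h before AlphaScreen reading.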
D2 agonist: agonists of human D2 dopamine receptor (beta-arrestin). P14416. DiscoveRx PathHunter D2 beta-arrestin, luminescence, 90 min; 100% = 57 uM dopamine signal. activation, % (no concentration beside the values). 360,000 compounds, 0.084% hits. AID 624465; in the data active = activation above about 40%; inconclusive = about 15% to 40%; inactive = below about 15%; note: compound concentration not given in the record; the text of the record calls up to 30% inactive
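DiscoveRx PathHunter D2 beta-arrestin cells (2,100/well) attached overnight, then compound-stimulated 90 min at 37 C in HBSS/10 mM HEPES/0.1% Tween-20 buffer; beta-galactosidase complementation read by luminescence after 1 h at ambient temperature. Dopamine 57 uM final (EC100) as control.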
Six1-Eya2 blk: inhibitors of human Six1/Eya2 interaction; Q15475+O00167; AlphaScreen GST-Six1/His-Eya2 binding, biochemical; stronger effect = lower value; control for the full effect not named in the record; activity change, % (concentration not given with the values); 360,000 compounds, 0.56% hits; AID 651725; in the data active = activity change below about -65%; inconclusive = about -30% to -65%; inactive = above about -30%; note: % is set by controls: 0 for no effect and ±100 for the full control effect
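Six1/Eya2 binding was read as AlphaScreen signal after compounds were pinned into GST-Six1 plus His-tagged Eya2 (5X stock 250/500 nM) in pH 8.0 Tris/NaCl/TCEP buffer, beads added, then incubated 1 h, 37 C, dark.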
* = called active by the depositor; u = inconclusive; x = not tested or not shown; & = joins results of further samples; [ ] = another dose, or the depositor's remark.

SMILES,D2 agonist,TRPML1 agonist,PINK1 expr mod,CtBP-E1A blk,D2 PAM,Six1-Eya2 blk
Cc1nc2scc(C)n2c(=O)c1S(=O)(=O)NCc1ccccc1Cl,-3.2,-0.5&-0.8,0.2%&4.1%,7.6,0.0,0.5
O=C(Nc1cccc2nsnc12)c1ccc2c(c1)OCCO2,0.3,0.0,x,3.1,-2.0,39.4
CC1CCN(C(=O)c2[nH]cnc2C(=O)Nc2nccs2)CC1,-0.7,2.8,-0.4%,-21.8,-5.9,-21.8
CCC(NC(=O)c1ccccc1NC(=O)c1ccccc1)C(=O)NNC(=O)c1cccnc1 (stereo not given),-6.3,0.4,-1.1%,x,2.5,-1.2
COc1ccc(NS(=O)(=O)c2cc(N)ccc2N2CCOCC2)cc1,0.6,0.3,0.2%,-5.0,-4.1,-4.2
O=C(Nc1nn[nH]n1)c1cc(-c2ccc(Cl)c(Cl)c2Cl)nc2ccccc12,-4.6,-0.2,3.0%,-3.5,-7.2,-2.9
COc1ccc(CNC(=O)C(c2ccccc2F)N(C(=O)c2csnn2)C2CC2)cc1 (stereo not given),-2.5,1.1,-0.6%,3.3,2.5,12.6
O=S(=O)(Nc1nc(SCc2ccc(Cl)cc2)n[nH]1)c1ccccc1,3.5,1.4,0.7%,x,1.3,-1.4
COc1cccc(OC)c1OCC(O)CN1CCN(c2ccccc2)CC1 (stereo not given),u,0.6,-0.2%,9.0,-30.8,31.6
Cc1ccc(NC(=O)C2C(C(=O)O)C3C=CC2C32CC2)cc1 (stereo not given),0.2,-0.6,0.0%,-2.4,3.0,7.1
CC12C=CC3(CN(Cc4ccccc4)C(=O)C3C1C(=O)NC1CC1)O2 (stereo not given),-0.6,-0.2,5.7%[38.3 µM],0.1,-3.7,0.4
CCC(=O)Nc1cc(-c2nn3c(C)nnc3s2)ccc1C,0.3,-0.2,-2.1%,-2.0,-1.5,3.6
CCCCn1nnnc1SCC(=O)c1cc(Cl)ccc1OC,-0.1,1.8,1.1%,9.8,-0.2,13.1
CC(=O)OC(C(=O)N1CCN(c2ccc(F)cc2)CC1)c1ccccc1 (stereo not given),-3.8,0.5,-1.9%,5.8,-2.9,3.9
COc1cccc(C2NC(=O)CCC2[N+](=O)[O-])c1 (stereo not given),7.1,0.6,3.3%,1.1,-4.8,4.4
CCOc1ccc(C(=O)Nc2ccc(C(=O)N3CCOCC3)cc2)c(OCC)c1,-7.4,-0.4,-0.5%,5.1,-21.7,-8.1
O=[N+]([O-])c1cc([N+](=O)[O-])c(Oc2ccc(F)cc2)cc1NN1CCCCC1,-2.2,-0.2,6.9%,-6.8,-6.4,-8.8
CCOC(=O)C1CCCN(c2cc(C)nc3cc(-c4ccc(F)cc4)nn23)C1 (stereo not given),1.8,-0.4,2.0%[38.3 µM],-0.2,-15.2,-3.3
CCOC(=O)N1CCN(C(=O)CNC(=O)C23CC4CC(CC(C4)C2)C3)CC1,3.4,0.0,3.1%,1.6,8.4,16.5
CCN(CC)S(=O)(=O)c1cc(NC(=O)CNc2cccc(S(=O)(=O)N3CCOCC3)c2)ccc1C,6.3,0.4,0.0%,0.0,-7.8,6.0
CCOc1ccc(/C=C/C(=O)OCC(=O)Nc2cccc(S(=O)(=O)N3CCCC3)c2)cc1,0.3,1.9,-1.1%,-17.1,-7.3,-1.9
Cn1cc(C(=O)C(=O)N2CCN(c3ccccc3)CC2)c2ccccc21,-0.8,1.5,3.3%,-2.0,1.7,6.2
COc1ccc(C2C(C(=O)Nc3cccc(C)n3)CCC(=O)N2c2ccc(OC)cc2)cc1 (stereo not given),2.3,0.1,7.2%,5.5,-4.4,7.2
O=C(COC(=O)COc1ccc(Cl)cc1Cl)NC1CC1,-3.5,-0.3,2.6%,1.4,-0.8,-0.4
COc1cccc(CNC(=O)CCC(=O)n2ncc3cc(C)ccc32)c1OC,3.8,-0.8,0.3%,-2.0,-1.8,-1.4
CC1=C(C(=O)N2CCOCC2)CC(CC(=O)NCCc2ccccn2)C(=O)N1CCC1=CCCCC1 (stereo not given),-6.7,-0.6,1.8%,10.3,-4.2,7.8
O=S(=O)(Nc1ncnc2c1oc1ccccc12)c1ccc(Cl)s1,-1.3,2.5,-2.0%,u,6.1,u
CN1/C(=C\C(=O)COC(=O)CNC(=O)c2ccccc2F)C(C)(C)c2ccccc21,-3.3,-0.7,2.6%,-1.8,-8.9,6.0
COc1cc(NCCC(=O)c2cccs2)c(OC)cc1Cl,1.2,3.8,0.0%,-1.1,-2.0,u
COc1cccc(CN(C)C(=O)c2ccc3c(=O)n4c(nc3c2)CCC4)c1,0.1,-0.1,1.6%,-3.5,12.5,-2.8
COC(=O)[C@H](Cc1ccccc1)NC(=O)N1CCC(C)CC1,-1.7,-0.1,9.0%[38.3 µM],-0.4,-0.7,0.2
CC1(C)CC(=O)C=C(NCc2cccnc2)C1,-3.8,0.2,2.9%,7.0,-0.2,12.6
COC1CCN(C(=O)c2ccc3oc(Cc4ccc(Cl)cc4)nc3c2)CC1,-1.6,0.1,1.6%,-3.8,-6.0,-1.9
O=C(Nc1ccc2c(c1)OCO2)c1noc2c1CCCCC2,1.6,2.9,22.6%[38.3 µM],8.9,-4.7,-7.9
O=C1CC(/C=C/c2ccccn2)=Nc2ccccc2N1,-3.5,1.0,-0.4%,7.3,-6.6,-12.5
O=C(CC(=O)N/N=C\c1ccc([N+](=O)[O-])cc1)NCCc1ccccc1,-1.8,-1.2,0.3%,-0.8,-19.2,-7.7
CCOc1cc(C2NC(=O)NC(O)(C(F)(F)F)C2C(=O)c2ccccc2)ccc1OC (stereo not given),-1.9,-0.3,-0.1%[38.3 µM],5.2,-2.7,2.0
O=C1CSC(=S)N1/N=C/c1ccc2c(c1)OCCO2,5.1,-0.4,-0.4%,-81.8*,-5.0,-27.8
COc1ccc(N2C(=O)[C@@H]3[C@H](C2=O)[C@H]2c4ccccc4C=CN2[C@@H]3C(C)=O)cc1,-2.5,0.8,1.6%,25.8,-7.4,-10.5
COc1ccc(NC(=O)c2c(NC(=O)CNCc3ccco3)sc3c2CCC3)c(OC)c1,-1.6,-0.3,8.2%,-3.5,-16.2,-1.3
COc1ccc(Oc2c(C(F)(F)F)oc3cc(OCC(=O)O)ccc3c2=O)cc1,-6.7,-0.1,1.6%,0.2,-14.2,4.4
NC(=O)COC(=O)Cc1coc2cc3c(cc12)CCC3,-5.6,-1.1,5.7%,-4.1,3.6,2.3
CC(=O)Nc1ccc(SC[C@H](C)CN2CC[C@H](C(C)(C)C)CCC2=O)cc1,-0.2,-0.6&-0.6,1.5%,2.0,-4.3,4.4
O=C(c1ccc(Cl)cc1)c1nnc(-c2ccncc2)o1,-0.6,0.2,2.6%,0.4,-4.8,-1.5
COc1ccc(OC)c(NC(=O)COC(=O)Cc2ccc(-c3ccccc3)cc2)c1,-0.2,-0.2,-2.3%,1.4,6.8,-8.4
CN(Cc1c(F)cccc1Cl)C(=O)c1ccc(NC(=O)CC2SC(N3CCCC3)=NC2=O)cc1 (stereo not given),3.1,0.4,0.2%,-9.0,22.3,8.6
CC(=O)Nc1c(O)nc(SCC(=O)Nc2nnc(SCc3ccccc3)s2)[nH]c1=O,-4.8,1.2,3.0%,-8.3,-3.5,3.6
CC(O)CNc1ncnc2cc(-c3ccc(F)cc3)sc12 (stereo not given),-0.8,0.5,4.3%,-0.6,-4.7,-16.6
CCCCC(=O)Nc1cccc(NC(=O)c2ccc(Br)o2)c1,-2.3,2.3,-0.1%[38.3 µM],-3.9,-8.4,-2.3
CCCCCC(O)C=CC1C(O)CC(O)C1CC=CCCCC(=O)O (stereo not given),-3.5,0.3,1.2%,4.6,-5.9,4.3
c1ccc(-c2ccccc2OCCCN2CCOCC2)cc1,-1.4,0.8,-0.8%,x,-14.7,2.7
O=c1[nH]c(C2CCN(S(=O)(=O)Cc3ccccc3)CC2)nc2c1nnn2Cc1cccc(Cl)c1,-0.2,0.7,0.1%,-8.6,-1.7,-9.1
CCCCCC(=O)N1C[C@@H](n2cc(C3CC3)nn2)[C@H](O)C[C@@H]1c1ccc(Cl)cc1,-5.9,-0.4,0.9%,2.9,-1.7,2.0
COC(=O)c1sc(N)c(C(=O)OC)c1COC(=O)CNS(=O)(=O)c1ccc(C)cc1,-1.0,0.7,3.1%,-0.5,-14.1,3.1
CC(=O)c1ccc(OCC(=O)N(C)C2CCS(=O)(=O)C2)cc1 (stereo not given),-0.6,-0.4,0.8%,4.3,0.0,-1.8
COc1ccc(/C=N/n2cncn2)cc1Cn1cc([N+](=O)[O-])cn1,-4.2,-0.8,0.6%,x,-21.5,-0.8
Cc1onc(-c2ccccc2)c1-c1n[nH]c(=S)n1-c1ccccc1Cl,-2.7,-1.0,12.8%[38.3 µM],4.0,-15.4,-0.3
NS(=O)(=O)c1ccc(CCNc2ccn3nc(-c4ccc(OCCN5CCOCC5)cc4)cc3n2)cc1,11.8,-0.1,-0.1%,u,3.6,u
COc1ccc(C2OC(=O)CC2C(=O)NC(C)C)cc1 (stereo not given),-2.7,-0.3,5.8%[38.3 µM],43.9,-2.7,3.4
COc1cccc(-c2nc(CS(=O)(=O)CC(=O)Nc3ccc(F)cc3F)c(C)o2)c1,-4.4,-0.6,0.3%,-3.6,-14.7,-3.5

The list continues:
SMILES,D2 agonist,TRPML1 agonist,PINK1 expr mod,CtBP-E1A blk,D2 PAM,Six1-Eya2 blk
COc1ccc(-c2cc(C)no2)cc1S(=O)(=O)N1CC(=O)Nc2ccccc21,-0.4,0.2,1.7%,0.0,-12.6,-0.5
CC(=O)N1CC2(NC(=O)c3ccccc3N2)c2ccccc21 (stereo not given),-2.9,-0.2,2.2%,-2.2,-5.1,4.9
O=C1c2ccccc2C(c2nnnn2-c2ccc3c(c2)OCCO3)N1Cc1cccnc1 (stereo not given),x,0.3,1.0%,4.0,x,1.4
Cc1cc(C)c(NC(=O)COC(=O)/C=C/c2cccc(C(F)(F)F)c2)c(C)c1,-1.7,0.5,1.0%,5.3,14.8,1.1
CC1CN(S(=O)(=O)c2cccc(C(=O)Nc3ccccc3N3CCCC3)c2)CC(C)O1 (stereo not given),-5.5,1.4,0.1%,-9.0,-35.1,-15.7
N/C(=N/O)C(c1ccccc1)c1ccccc1,2.0,-0.1,1.2%,5.7,18.6,-0.6
Cc1ccc(OCC(O)CNCc2ccc(F)cc2)cc1 (stereo not given),-0.2,0.8,-0.7%,-3.0,-7.2,-9.7
Cc1nn(C)c(Cl)c1C(=O)NCC(=O)Nc1ccc(C(C)C)cc1,-3.7,-0.3,0.7%,1.6,-9.9,3.1
[S-]c1nnc(-c2ccc(Br)cc2)n1-c1ccccc1.[Zn+2],-5.9,-0.2,0.1%,9.2,-3.1,2.1
